miR-21 FLuc: miR-21 reporter, rising signal. 340,000 tested, under 10 active. HeLa miR-21 FLuc reporter, luciferase, 48 h. AID 2288. Potency, µM (top dose mostly 38.3 µM), without a hit: top-dose reporter change, positive = more light; active = well fitted rising curve with a large enough effect; inconclusive = small, poorly fitted or top-dose-only effect; inactive = no such curve, though single readings can be large or run the other way;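 note: % of control where 0% means no effect; miR-21 action dims this reporter so a rising signal means less miR-21 action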
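HeLa cells stably expressing CMV-driven firefly luciferase with a downstream miR-21 binding sequence, endogenously expressing miR-21, were treated with titrations (up to about 40uM final) for 48 hours at 37 degree Celsius. Luciferase luminescence was read after lysis.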
Rango dissoc inh: prevents RanGTP from dissociating the Rango-importin beta complex. Potency, µM (doses to about 46.1 µM), inactives show top-dose activity change, negative = inhibition. AID 540253. 340,000 tested, 0.071% active. Biochemical FRET Rango-importin beta, RanGTP-induced dissociation; active means falling FRET ratio curve, often poorly fitted, with flat reads before Ran was added; inconclusive means other falling curves, or compound fluorescence or quenching; inactive means flat or rising ratio curve;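 note: potency is the fitted concentration of half-maximal effect; % of control where 0% means no effect; nearly all actives have a fitted effect of over 45% in size; -100% = wells without RanGTP and RCC1; the record marks most hits as doubtful in a second field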
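Rango/importin beta premix (0.1/0.25 uM final), PBS + 1 mM DTT + 0.02% Tween-20 + 0.1% BSA; cpd 5 min RT; FRET pre-read; + RanGTP-RCC1 (0.6 uM Ran, 2 mM GTP, 0.2 uM RCC1); 45 min RT; FRET post-read, ex 430, em 486/530 nm.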
Rango-impB inh: inhibitors of Rango-importin beta complex formation | Q14974 | Rango CFP/YFP FRET sensor + importin beta, 45 min | Potency, µM (series often up to 92.2 µM), for inactives: at the top dose inhibition of complex formation | 340,000 tested, 0.031% active; active = rising FRET ratio curve, often small or poorly fitted; inconclusive = mostly compound fluorescence or quenching in the first reads; inactive = flat curves in all reads;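 note: potency is the fitted concentration of half-maximal effect; 0% = DMSO wells and 100% = buffer wells lacking importin beta; nearly all actives have a fitted effect of over 15% in size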
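FRET biosensor (snurportin 1 IBB flanked by EYFP and cerulean), 50 nM, with compound 5 min, then 0.125 microM importin beta in PBS, 1 mM DTT, 0.02% Tween-20, 0.1% BSA. CFP/YFP ratio read after 45 min at room temperature; pre-read flags interference.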
GLA inh pH 4.5: blocks human alpha-galactosidase A at pH 4.5; P06280; purified enzyme, 4-MU-alpha-Gal fluorescence, pH 4.5; activity change, negative = inhibition, % at 105 µM; 230,000 tested, under 10 active; inconclusive = small, poorly fitted or top-dose-only inhibition, or a rising curve; inactive = flat fitted curve, though single readings scatter; no compound was filed as active;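 note: 0% = full activity with enzyme and -100% = basal without enzyme; dose as in the result columns while the protocol names 77 µM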
Target sequence (P06280 whole entry, looked up): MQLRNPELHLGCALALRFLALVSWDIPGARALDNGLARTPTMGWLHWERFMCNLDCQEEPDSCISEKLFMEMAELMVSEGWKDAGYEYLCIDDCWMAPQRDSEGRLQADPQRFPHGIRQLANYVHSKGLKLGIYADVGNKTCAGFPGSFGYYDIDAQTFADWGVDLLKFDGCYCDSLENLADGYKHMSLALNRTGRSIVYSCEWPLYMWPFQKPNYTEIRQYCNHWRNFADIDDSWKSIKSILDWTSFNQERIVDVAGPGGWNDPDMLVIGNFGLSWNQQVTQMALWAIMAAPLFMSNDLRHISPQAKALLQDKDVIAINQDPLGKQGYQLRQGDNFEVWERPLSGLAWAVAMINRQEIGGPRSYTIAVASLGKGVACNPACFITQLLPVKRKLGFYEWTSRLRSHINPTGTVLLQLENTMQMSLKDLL
Active calls of the source: *; ? = inconclusive; . = no result given; & = joins results of further samples; [ ] = dose if it differs, or a comment. Not all compounds are listed; the hit share may differ from the screen's.

Below each SMILES – miR-21 FLuc	Rango dissoc inh	Rango-impB inh	GLA inh pH 4.5
1. Cn1cccc1C(C#N)c1ncc(C(F)(F)F)cc1Cl (stereo unspecified)
 : 3.2%	-28.9%	?	-6.3
2. Cc1ccccc1-c1ccc(/C=C2/SC(N3CCOCC3)=NC2=O)o1
 : -4.8%	?	?	-4.6
3. COc1cc(NC(=O)c2ccccc2F)ccc1NC(=O)c1ccccc1Cl
 : -20.3%	-7.0%	5.8%	0.2
4. Cn1nccc1C(=O)OCC(=O)Nc1nc(-c2ccccc2)cs1
 : -36.8%	-8.6%	-2.2%	-7.5
5. O=C(c1ccncc1)N1CCN(C2CCCCC2)CC1
 : 0.6%	7.3%	-1.3%	-0.3
6. CCCn1c(=O)c(C(=O)Nc2c(C)n(C)n(-c3ccccc3)c2=O)c(O)c2ccccc21
 : 0.7%	1.3%	-1.5%	8.5
7. Cc1cc(NC(=O)CSc2nnc3c(C)cc4cc5c(cc4n23)OCO5)no1
 : -0.8%	.	.	7.1
8. COc1cc2sc3ccc(C#Cc4ccccn4)cc3c(=O)c2cc1OC
 : .	-14.1%	-2.8%	.
9. COc1cc(CNCc2ccncc2)cc(OC)c1OC
 : 2.8%	7.9%	4.5%	.
10. Cn1c(NC(=O)C[n+]2cc(-c3ccccc3)n3c2CCC3)cc(=O)n(C)c1=O
 : -3.1%	7.4%	0.8%	2.7
11. CN(C)C(=O)CSc1nc2ccccc2n1Cc1ccccc1
 : 1.0%	2.5%	-1.1%	2.2
12. c1ccc(-c2cc(-c3ccccc3)on2)cc1
 : -70.2%	-0.6%	0.6%	-6.3
13. CC(C)CC(=O)N1CCN(S(=O)(=O)c2ccc(Cl)cc2)CC1
 : 0.0%	6.1%	-0.3%	3.3
14. COC(=O)c1ccc(Cn2nnc3c(=O)[nH]c(C4CCCN(S(=O)(=O)c5cccc(Cl)c5)C4)nc32)cc1 (stereo unspecified)
 : -1.5%&-3.7%	-12.1%	1.2%	.
15. CCCn1c2ccc(C)cc2c2nnc(SCCN3CCOCC3)nc21
 : 3.0%	-3.2%	-0.3%	.
16. CCN(CC)C(=O)CN1C(=O)NC2(CCc3ccccc3C2)C1=O (stereo unspecified)
 : -1.7%	-12.3%	5.0%	4.4
17. CCOC(=O)C(NC(=O)c1ccccc1)=C(C)C
 : 0.0%	10.1%	3.4%	2.4
18. Cc1coc2cc3oc(=O)c4c(c3cc12)CCC4
 : -2.8%	.	.	9.1
19. COc1cccc(CC(=O)OCC(=O)NC2CCCC2)c1
 : .	-19.9%	2.1%	.
20. Cc1cc(=O)n2[nH]c(N)c(N=Nc3ccccc3F)c2n1
 : -8.7%	-2.2%	3.5%	-11.4
21. CN(CC(=O)Nc1ccc(F)c(F)c1F)C(=O)c1ccc(-n2cncn2)c([N+](=O)[O-])c1
 : .	-6.9%	-2.9%	.
22. CC1Cc2ccccc2N1C(=O)CCn1c(=O)sc2ccccc21 (stereo unspecified)
 : -30.6%	-2.1%	-2.4%	8.5
23. Cc1ccc2nc(CCl)[n+]([O-])c(-c3ccccc3)c2c1
 : -8.1%	25.0%	-1.5%	.
24. O=C(NCCCN1CCN(c2ccccc2F)CC1)C1CCCN(S(=O)(=O)c2cnc[nH]2)C1 (stereo unspecified)
 : -7.3%	-1.8%	-0.9%	-1.8
25. CC1CCCN(C(=O)CCNS(=O)(=O)c2ccc3c(c2)oc(=O)n3C)C1 (stereo unspecified)
 : -2.5%	11.1%	-2.5%	.
26. O=c1[nH]c(CN2CCN(c3ccc(O)cc3)CC2)nc2scc(-c3ccc(Cl)cc3)c12
 : 27.8%	9.2%	1.3%	7.1
27. CCCC(=O)Nc1nnc(-c2ccccc2)o1
 : -5.7%	23.7%	1.1%	1.9
28. CCc1cc(C(=O)OC)c(NC(=O)c2ccoc2C)s1
 : -1.8%	11.4%	-1.1%	.
29. NNC(=O)c1ccc(COc2ccc3ccccc3c2)cc1
 : -25.9%	7.2%	-0.5%	5.0
30. COc1ccc(S(=O)(=O)N2CCCC(C(F)(F)F)C2)cc1 (stereo unspecified)
 : -0.7%	-14.8%	4.2%	-5.0
31. CN1CCN(c2c(F)cc3c(=O)c(C(=O)O)cn4c3c2OCN4C)CC1
 : 0.2%	-5.2%	-3.3%	-0.7
32. O=[N+]([O-])c1ccc2ncnc(N3CCN(Cc4ccc5c(c4)OCO5)CC3)c2c1
 : 25.5%	-1.6%	1.2%	.
33. O=C(NNS(=O)(=O)c1ccc(Cl)cc1)c1sccc1-n1cccc1
 : 0.5%	-11.0%	7.1%	6.4
34. CCCC(=O)OCC1CN(Cc2ccco2)S(=O)(=O)c2c(F)cccc2O1 (stereo unspecified)
 : .	-5.8%	2.3%	.
35. COc1ccc(C(=O)Nc2ccc(N3CCOCC3)cc2)cc1S(=O)(=O)N1CCCC1
 : .	-21.1%	-5.3%	.
36. CCOc1ccc(-n2c(SCC(=O)Nc3ccc4c(c3)OCCO4)nc3c(c2=O)SCC3)cc1
 : -6.2%	1.3%	1.8%	1.6
37. O=C(c1cnccn1)N(Cc1cccs1)C1(C(=O)NC2CCCC2)CCCCC1
 : -4.9%	4.2%	-2.0%	2.4
38. CN(C)c1cc[n+](CC(=O)c2ccc(-c3ccccc3)cc2)cc1
 : ?	12.6%	4.0%	1.7[21.1 µM]
39. O=C(CSc1nnc(-c2ccc(Cl)s2)o1)N1CCc2ccccc21
 : -3.7%	.	.	2.7
40. CCCCOc1ccc(C(=O)OCC(=O)Nc2cc(C)on2)cc1
 : -1.9%	27.7%	-1.2%	6.1
41. COc1ccc(CN2CCC(=O)N([C@H](CO)Cc3ccccc3)CC2)cc1
 : 1.6%	-18.0%	3.2%	.
42. O=C(O)c1ccccc1NN=Cc1ccccc1
 : .	-11.7%	3.5%	.
43. CCN(c1ccccc1)S(=O)(=O)c1cccc(C(=O)NCc2ccccc2CN2CCOCC2)c1
 : .	1.3%	0.2%	.
44. CC(C)CC(=O)c1c[nH]c(C(=O)O)c1
 : 0.6%	0.9%	-0.9%	14.2
45. Cn1c(=O)c2c(=O)cc(N)[nH]c2n(C)c1=O
 : -0.6%	-2.9%	0.2%	-1.4
46. COc1ccc(C(=O)NCCN2CCOCC2)cc1OC
 : -8.7%	-25.6%	0.5%	-0.9
47. CCSc1cc(N2CCCC2)nc(-c2ccccc2Cl)n1
 : -1.2%	-2.0%	-2.0%	-4.5
48. CCOC(=O)C(=CNc1ccc(C(F)(F)F)cc1Cl)C(=O)OCC
 : -3.3%	5.2%	-5.6%	-12.8
49. COc1ccc(NC(=S)Nc2cccc(Cl)c2)cc1OC
 : -9.4%	-5.5%	-0.3%	-15.9
50. COc1cc2c(cc1NC(=O)CSc1ccccc1)oc1ccccc12
 : -30.5%	4.8%	-0.6%	-0.6
51. CC(C)CNS(=O)(=O)c1ccc(CCC(=O)N2CCN(Cc3ccc4c(c3)OCO4)CC2)cc1
 : 20.4%	0.8%	5.4%	-3.6
52. Cc1nn(CC(=O)N2CCC(C)CC2)c(=O)c2nn(-c3ccccc3)c(C)c12
 : -0.9%	4.0%	-1.3%	.
53. Cc1ccc(-c2nc(C#N)c(N3CCCCC3)o2)cc1
 : -41.9%	18.4%	-3.8%	0.8
54. CC(=O)Nc1cc(NC(C)=O)cc(C(=O)N2CCCC3CCCCC32)c1 (stereo unspecified)
 : -3.8%	-7.2%	1.8%	.
55. COc1ccc(OCC(=O)Nc2ccc3c(c2)nc(CCN2CCCC2)n3C)cc1
 : -6.4%	-3.0%	-0.8%	.
56. Cc1cccc(NS(=O)(=O)c2ccc(C)c(C(=O)NCCCN3CCOCC3)c2)c1
 : .	0.2%	-0.1%	.
57. COc1cc(C(C(=O)NC2CCCCC2)N(Cc2ccco2)C(=O)c2cnccn2)cc(OC)c1OC (stereo unspecified)
 : 2.9%	10.5%	0.9%	3.7
58. Cc1nc(Nc2ccc(F)cc2)nc(Nc2ccc(F)cc2)c1[N+](=O)[O-]
 : 3.8%	11.3%	0.2%	-16.2
59. CCCCN(C)C(=O)Cn1cnc2sc(C)cc2c1=O
 : -1.3%	-11.2%	1.6%	-5.9
60. COc1ccc(Cc2nnc(Nc3ccccc3)s2)cc1Br
 : -9.2%	-0.7%	4.3%	.

Part of the list above, screen by screen:
37	O=C(c1cnccn1)N(Cc1cccs1)C1(C(=O)NC2CCCC2)CCCCC1
38	CN(C)c1cc[n+](CC(=O)c2ccc(-c3ccccc3)cc2)cc1
39	O=C(CSc1nnc(-c2ccc(Cl)s2)o1)N1CCc2ccccc21
assay / entry | 37 | 38 | 39
miR-21 FLuc | -4.9% | ? | -3.7%
Rango dissoc inh | 4.2% | 12.6% | .
Rango-impB inh | -2.0% | 4.0% | .
GLA inh pH 4.5 | 2.4 | 1.7[21.1 µM] | 2.7

(list continues)
Below each SMILES – miR-21 FLuc	Rango dissoc inh	Rango-impB inh	GLA inh pH 4.5
61. O=[N+]([O-])c1cc(S(=O)(=O)Nc2ccccc2)ccc1Nc1ccccc1
 : .	4.3%	-0.3%	.
62. CCOc1ccc(CCNC(=O)COC(=O)c2cc([N+](=O)[O-])ccc2N2CCOCC2)cc1OCC
 : 0.0%	8.1%	-0.1%	.
63. CCOC(=O)c1cc(CC)sc1NC(=O)Cc1ccccc1
 : -5.2%	-8.6%	-1.1%	0.9
64. COc1ccc(C)cc1NC(=O)N1CCC(CO)(CC2CCCCO2)CC1 (stereo unspecified)
 : -3.1%	-12.2%	4.7%	6.1
65. Cc1ccc(-n2ncc3c2CC(C)(C)CC3NC(=O)CCN2CCCCC2=O)cc1 (stereo unspecified)
 : -1.8%	6.3%	0.2%	.
66. CC1=CC2=NC(=O)/C(=C/c3cccn3Cc3ccccc3)C(=N)N2O1
 : 10.2%	-1.0%	3.4%	-1.5
67. O=C(O)C1CC1C(=O)N1CCN(c2ccc(Cl)c(Cl)c2)CC1 (stereo unspecified)
 : -4.7%	-5.1%	7.6%	-4.6
68. Cc1ccc(S(=O)(=O)Nc2cc3c(C(=O)Nc4ccccc4)c(C)oc3c3ccccc23)cc1
 : -3.3%	-8.1%	2.6%	-3.8
69. CCN(CC)CCN(C(=O)CN1C(=O)c2ccccc2C1=O)c1nc2cc3c(cc2s1)OCO3
 : -4.9%	13.6%	0.5%	.
70. O=C1CC(c2ccc(Cl)cc2)c2c(O)cc(O)cc2O1 (stereo unspecified)
 : 0.3%	11.9%	-1.9%	.
71. C#CCOCCOCCOCCNc1nc(N2CCN(C(=O)[C@H]([C@@H](C)CC)n3cc([C@@H](N)CO)nn3)CC2)nc(N2CCN(C(=O)[C@H](CCCCN)n3cc([C@@H](N)C(C)CC)nn3)CC2)n1 (stereo partly specified)
 : -1.7%	-17.8%	-3.9%	3.8
72. O=C(NCC(=O)N(CCc1ccccc1)C(C(=O)NC1CCCC1)c1cccnc1)c1ccco1 (stereo unspecified)
 : -11.4%	1.4%	0.2%	-1.9
73. COc1ccccc1Cc1nnnn1CC(=O)O
 : -8.7%	0.0%	-3.9%	1.7
74. Cc1cc(C(=O)CSc2ccc(F)cc2)cc(C)c1O
 : -68.4%	-9.7%	-0.9%	.
75. O=C(Nc1cccc(N2C(=O)C3C4C=CC(C4)C3C2=O)c1)c1cccs1 (stereo unspecified)
 : 11.0%	-4.6%	-1.5%	0.0
76. O=C(C[n+]1ccc(/C=N/O)cc1)N(Cc1ccccc1)Cc1ccccc1
 : 17.8%	-9.3%	-3.2%	-15.4
77. Cc1csc(SCC(=O)c2c(N)n(C)c(=O)n(C)c2=O)n1
 : -20.9%	6.4%	-2.3%	-2.9
78. CC1CCCN(S(=O)(=O)CCNC(=O)c2ccc3c(c2)OCO3)C1 (stereo unspecified)
 : .	1.1%	0.7%	.
79. O=C(Nc1ccc(Cl)c(Cl)c1)Nc1ccccc1O
 : 0.5%	1.1%	0.0%	-5.9
80. O=C(CBr)Nc1c2c(nn1-c1ccccc1)CSC2
 : -0.4%	21.4%	-2.1%	.
81. O=C(NCc1ccc(Cl)cc1)C1CCN(C(=O)Cc2ccccc2)CC1
 : -2.8%	1.0%	-0.1%	.

From PubChem BioAssay
